Lassa entry inh – inhibitors of Lassa virus binding or cell entry; Lassa virus pseudotype entry inhibition, cell reporter; control for the full effect not named in the record; actives 1.2% (n = 300,000); AID 540256; Potency, µM (highest dose often 37.9 µM), without a hit: at the top dose activity change, negative = inhibition, actives largely listed as inhibitors; active means well fitted inhibition curve with a large enough effect; inconclusive means small, poorly fitted or top-dose-only effect, or effect the other way; inactive means flat fitted curve, though single readings scatter; tested in HEK293 cells; further: on the % scale 0 is the no-effect control and ±100 the full control effect; nearly all actives have a fitted effect of over 50% in size; luciferase read-out
SARS PLpro yeast – inhibitors of SARS-CoV papain-like protease in yeast. S. cerevisiae expressing SARS-CoV PLpro, growth rescue; control for the full effect not named in the record. Potency, µM (top dose mostly 32.9 µM), for inactives: at the top dose activity, positive = growth rescue. actives 0.19% (n = 330,000). AID 485353; active means well fitted rising curve with a large enough effect; inconclusive means small, poorly fitted or top-dose-only effect; inactive means no such curve, though single readings can be large or run the other way; further: 0% is about no effect; nearly all actives have a fitted effect of over 55% in size; growth read by luminescence after 48 h
NS1 function inh – blocks influenza NS1 protein function. Potency, µM (doses to about 46.1 µM), without a hit: at the highest dose activity, positive = more growth. actives 0.4% (n = 270,000). S. cerevisiae slowed by influenza A NS1, growth recovery by OD600; active means well fitted rising curve with a large enough effect; inconclusive means small, poorly fitted or top-dose-only effect; inactive means no such curve, though single readings can be large or run the other way; further: nearly all actives have a fitted effect of over 50% in size
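S. cerevisiae expressing influenza A NS1, grown in glucose, washed, then diluted 1:100 into pH 6.0 -URA galactose medium with 23 nl compound. Growth recovery read as OD600; NS1-free strain serves as control.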
Cruzain noTriton – cruzain (T. cruzi) inhibition without detergent. P25779. purified cruzain, Z-FR-AMC fluorescence, no detergent. Potency, µM, inactives show max response, negative = inhibition, actives largely listed as inhibitors. actives 2.3% (n = 200,000). AID 1476;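 further: plate controls were enzyme without inhibitor for no effect and buffer without enzyme for full effect; nearly all actives have a fitted effect of over 40% in size; top concentration of the series not given in the record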
Target sequence (P25779 123-467 limits assumed): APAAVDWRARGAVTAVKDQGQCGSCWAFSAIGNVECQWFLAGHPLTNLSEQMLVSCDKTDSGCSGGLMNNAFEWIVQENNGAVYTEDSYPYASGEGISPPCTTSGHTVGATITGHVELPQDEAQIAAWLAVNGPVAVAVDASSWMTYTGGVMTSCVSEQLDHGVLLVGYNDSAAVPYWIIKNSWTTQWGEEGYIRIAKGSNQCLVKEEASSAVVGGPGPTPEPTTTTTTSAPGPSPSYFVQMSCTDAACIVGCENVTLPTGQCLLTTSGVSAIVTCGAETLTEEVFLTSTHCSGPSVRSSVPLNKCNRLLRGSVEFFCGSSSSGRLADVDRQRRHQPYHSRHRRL
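Detergent-free condition (0.00005% Triton X-100) in acetate buffer pH 5.5 with DTT. 1.5 nM enzyme and compound were pre-mixed 15 min, then 2 uM Z-FR-AMC substrate added; reaction progress from fluorescence change between first and third reads (60 s).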
Cruzain Triton – blocks cruzain activity in presence of Triton detergent; P25779; purified cruzain, Z-FR-AMC fluorescence, 0.01% Triton; Potency, µM, for inactives: max response, negative = inhibition, most hits filed as inhibitors; actives 0.43% (n = 200,000);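 further: plate controls were neutral wells for no effect and buffer without enzyme for full effect; nearly all actives have a fitted effect of over 40% in size; top concentration of the series not given in the record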
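Compounds were screened in titration against cruzain (1.5 nM) with 0.01% Triton X-100 to counter colloidal aggregation. Activity was the AMC fluorescence increase over 60 s after adding 2 uM Z-FR-AMC at pH 5.5.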
2A StopGo – FMDV 2A StopGo reporter, luciferase signal | Potency, µM (top dose mostly 57.9 µM), without a hit: top-dose signal change, negative = less light | human cells with a luciferase reporter of 2A StopGo recoding; control for the full effect not named in the record | actives 1.2% (n = 410,000) | AID 1159524; active = well fitted falling curve with a large enough effect; inconclusive = small, poorly fitted or top-dose-only effect; inactive = no such curve, though single readings can be large or run the other way; tested in HEK293T cells; further: on the % scale 0 is the no-effect control and ±100 the full control effect; nearly all actives have a fitted effect of over 45% in size; luciferase light after 4 h
RE007 growth inh – less growth of the S. pombe RE007 Vpr strain. S. pombe RE007 Vpr strain, BacTiter-Glo ATP luminescence, 24 h; control for the full effect not named in the record. Potency, µM (series often up to 92.2 µM), inactives show at the top dose activity change, negative = less growth. actives 0.21% (n = 360,000); active = well fitted falling curve with a large enough effect; inconclusive = small, poorly fitted or top-dose-only effect; inactive = no such curve, though single readings can be large or run the other way;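 further: on the % scale 0 is the no-effect control and ±100 the full control effect; nearly all actives have a fitted effect of over 50% in size; the assay follows cell death caused by Vpr and the record does not say whether a fall means rescue or toxicity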
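Fission yeast strain RE007, carrying one chromosomally integrated HIV-1 vpr copy, was seeded at OD 0.01 in PMG+AL medium with 23 nL pinned compound. After 24 h at 30 °C and 99% humidity, viability was read by BacTiter-Glo luminescence.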
Marburg entry inh – inhibitors of Marburg virus binding or cell entry. Marburg virus pseudotyped entry inhibition, cell reporter; control for the full effect not named in the record; about a third of the inactives were read at about 46 µM. Potency, µM (series often up to 37.8 µM), without a hit: at the top dose activity change, negative = inhibition, hits mostly inhibitors. actives 1.8% (n = 300,000); active = well fitted inhibition curve with a large enough effect; inconclusive = small, poorly fitted or top-dose-only effect, or effect the other way; inactive = flat fitted curve, though single readings scatter; tested in HEK293 cells; about a fifth of its hits are not listed in these tables; further: on the % scale 0 is the no-effect control and ±100 the full control effect; luciferase read-out
The depositor's hits bear a star; ? = inconclusive; . = not tested or not shown; [ ] = remark or other dose. Unless noted, the call rests on the fitted dose curve; in most records, active means well fitted curve in the direction sought with a large enough effect; inconclusive means small, poorly fitted or top-dose-only effect, or another doubt; inactive means no such curve, though single readings can be large; an effect the other way counts as inactive or inconclusive. Potency means the concentration at half of the fitted maximal effect.

SMILES	Lassa entry inh	SARS PLpro yeast	NS1 function inh	Cruzain noTriton	Cruzain Triton	2A StopGo	RE007 growth inh	Marburg entry inh
Nc1c([N+](=O)[O-])cnnc1-c1ccccc1	6%	1%	-1%	-1%	-5.0%	-22%	6%	?
Cc1ccc(-c2ccc(SCC(=O)NCC3CCCO3)nn2)cc1 (stereo not given)	-12%	1%	.	.	.	24%	-7%	3%[46.1 µM]
O=C(CNC(=O)C1CCCCC1)Nc1cc(Cl)cc(Cl)c1	-9%	5%	11%	-9%	-9.6%	24%	33%	-6%
COc1cc(/C=C/C(=O)OCC(=O)c2ccc[nH]2)cc(OC)c1OC	-8%	-1%	.	.	.	-5%	2%	?
COc1cccc2sc(N(CCCN(C)C)C(=O)CCS(=O)(=O)c3ccccc3)nc12	.	-21%	0%	.	.	?	-7%	.
Cc1ccc(N(CC(=O)NC2CCCCC2)C(=O)CCCC(=O)Nc2ccccn2)cc1	0%	1%	-4%	.	.	30%[activator]	-2%	-20%[46.1 µM]
COC(=O)c1cc(NC(=O)CC2Oc3ccccc3NC2=O)cc(C(=O)OC)c1 (stereo not given)	0%[46.1 µM]	1%	10%	.	.	-15%	10%	-13%[46.1 µM]
Cc1c(NS(=O)(=O)c2ccc(N(C)C3CCCCC3)c([N+](=O)[O-])c2)c(=O)n(-c2ccccc2)n1C	-1%	-17%	13%	4%	-5.7%	-6%	2%	?
Nc1nnc(SCc2c(F)cccc2Cl)s1	3%[46.1 µM]	0%	-3%	.	.	8%	-1%	?
COc1cccc(CCC(=O)N(C)C2CCCN(Cc3ccccc3F)C2)c1 (stereo not given)	.	26%	5%	.	.	3%	9%	.
COc1ccc(CCCC(=O)N/N=C/c2cccc(OC)c2O)cc1C	?	4%	-10%	0%	-5.0%	-20%	-1%	?
CCC1CCc2c(sc(NC(=O)c3ccco3)c2C(N)=O)C1 (stereo not given)	?	-29%	10%	?	-18%	36%[activator]	?	-2%
CCOC(=O)c1[nH]c(C)c(CCC(=O)Nc2cc(Cl)ccc2C)c1C	?	.	.	-13%	4.5%	5%	.	.
CCOC(=O)c1c(NC(=O)CSc2nc3c(c(=O)n(C)c(=O)n3C)n2C(C)C)sc(C)c1C	14%	1%	-6%	2%	12%	.	2%	1%
O=S(=O)(c1ccc(-c2csc(=Nc3ccc(F)cc3)n2CCCCCCO)cc1)N1CCCC1	?	.	.	?	-5.2%	25µM*	.	?

One compound at a time, as listed above. Order of screens: Lassa entry inh | SARS PLpro yeast | NS1 function inh | Cruzain noTriton | Cruzain Triton | 2A StopGo | RE007 growth inh | Marburg entry inh
CCOC(=O)c1[nH]c(C)c(CCC(=O)Nc2cc(Cl)ccc2C)c1C in the list: ? | . | . | -13% | 4.5% | 5% | . | .
COC(=O)c1cc(NC(=O)CC2Oc3ccccc3NC2=O)cc(C(=O)OC)c1 (stereo not given) in the list: 0%[46.1 µM] | 1% | 10% | . | . | -15% | 10% | -13%[46.1 µM]
COc1cc(/C=C/C(=O)OCC(=O)c2ccc[nH]2)cc(OC)c1OC in the list: -8% | -1% | . | . | . | -5% | 2% | ?

(listing goes on)
SMILES	Lassa entry inh	SARS PLpro yeast	NS1 function inh	Cruzain noTriton	Cruzain Triton	2A StopGo	RE007 growth inh	Marburg entry inh
CCc1nc(SCC(=O)Nc2ccc(N(C)C)cc2)c2ccccc2n1	.	-4%	-3%	.	.	-17%	-6%	.
COc1ccc2c(CC(=O)N3CCc4cc(OC)c(OC)cc4C3)coc2c1	?	0%	-8%	.	.	4%	8%	-12%
CSc1nc2ccc(NC(=O)NC(=O)c3c(F)cccc3F)cc2s1	-3%	1%	1%	.	.	29%	-7%	-25%
COc1cc(NC(=O)CN(c2ccc(C)cc2)S(=O)(=O)c2cccc3nonc23)cc(OC)c1	-18%[46.1 µM]	.	.	?	-3.4%	-14%	.	?
COc1ccc(NC(=S)N(CCCN2CCOCC2)C(C)c2cc3cccc(OC)c3o2)cc1 (stereo not given)	?	-2%	.	.	.	-6%	10%	?
Cc1ccc(NC(=O)CCC(=O)N/N=C/c2ccc(O)cc2O)cc1	?	1%	-3%	.	.	-4%	0%	?
COc1cc(OC)c(OC)cc1/C=N/n1c(C)nc2ccccc2c1=O	-2%[46.1 µM]	-8%	-15%	.	.	-16%	-3%	14%[46.1 µM]
O=C(CNCc1ccccc1)NC1C2CC3CC(C2)CC1C3 (stereo not given)	25%	1%	-12%	.	.	32%[activator]	-5%	14%
COC(=O)C1CCN(C(=O)COC(=O)c2ccc(OC)c(S(=O)(=O)N3CCCc4ccccc43)c2)CC1	.	-7%	10%	.	.	11%	2%	.
CCN(CC)c1ccc(C(=C2C=CC(=[N+](CC)CC)C=C2)c2ccccc2)cc1	0.56µM*	.	.	.	.	3.5µM*	4.5µM*	?
Cc1ccccc1N1C(=O)c2ccccc2C1O (stereo not given)	.	2%	0%	.	.	-18%	-13%	.
Cc1cccc(-c2nnc(NC(=O)c3cccs3)s2)c1	2%	-23%	2%	16µM*	-0.2%	9%	-6%	9%
N#CC1(C(N)=O)OC12CCS(=O)(=O)c1ccccc12 (stereo not given)	3%	.	.	.	.	10%	0%	26%
COc1ccc(Br)cc1-c1noc(-c2ccncc2)n1	-1%	2%	-1%	-10%	2.6%	-14%	7%	?
COc1ccc(-c2nn(-c3ccccc3)cc2/C=C/C(=O)N2CCOCC2)cc1OC	7%[46.1 µM]	-4%	.	.	.	-10%	1%	?
O=C(O)c1cnc(-c2ccccc2)nc1Oc1ccc(Cl)cc1	2%	-1%	.	.	.	-24%	-2%	12%[46.1 µM]
COc1ccc2c(c1)NC1(O)c3ccccc3C(=O)C21O (stereo not given)	?	1%	7%	10%	4.2%	.	70%	13%
Cc1cccc(-c2nc3c(c(SCC(=O)N4CCOCC4)n2)CCCC3)c1	6%	-8%	0%	?	-6.2%	-6%	-8%	6%
CCO[C@H]1OC(C(=O)NC2CC2)=C[C@@H](C)[C@@H]1CCCO	.	0%	6%	.	.	9%	8%	.
C[C@H](NC(=O)OC(C)(C)C)c1nnc(SCC(=O)Nc2ccc(Br)cc2)o1	25%	-2%	3%	-20%	1.0%	-3%	-12%	9%
CS(=O)(=O)Nc1ccc(-c2ccc(/C=C3\SC(N)=NC3=O)o2)cc1	.	2%	6%	.	.	-7%	-4%	.
O=[N+]([O-])c1ccc2nc(SCc3cn4ccccc4n3)[nH]c2c1	-14%	?	12%	-21%	-3.3%	-5%	-6%	7%
CN(C(=O)COC(=O)Cn1cnc2ccccc21)C1CCCCC1	2%	14%	.	.	.	-25%	7%	-3%
O=C1CC(=O)C(n2cncn2)C(c2ccc(Cl)cc2Cl)C1 (stereo not given)	16%	5%	14%	4%	-0.7%	3%	-7%	5%
C=CCNC(=S)Nc1sc2c(c1C(=O)OCC)CCN(C(=O)OCC)C2	?	.	10%	-11%	-5.9%	-9%	19%	?
C=CCn1cc(C(=O)OC)c(=O)c2cc(S(=O)(=O)N3CCCCCC3)ccc21	1%[46.1 µM]	3%	.	.	.	12%	5%	-2%[46.1 µM]
CCOC(=O)[C@H]1[C@H]2COc3cc(OC)ccc3[C@@H]2N2C(=O)N(c3cccc(Cl)c3)C(=O)[C@@]12C	.	-10%	-2%	.	.	-19%	25%	.
CC(C)NC(=O)c1ccccc1NS(=O)(=O)c1ccc(Br)s1	-17%	0%	-54%	.	.	-2%	-17%	-24%
O=C(CN1CCCCC1)NNC(=O)c1ccc([N+](=O)[O-])cc1	.	-4%	18%	.	.	-12%	1%	.
CCCC(C)C(=O)Nc1ccc(C(N)=O)cc1 (stereo not given)	22%	6%	-1%	-4%	1.3%	-18%	10%	-9%
O=C(CN1CCN(Cc2ccccc2)CC1)Nc1cccc(S(=O)(=O)N2CCCCCC2)c1	-22%	1%	.	.	.	-26%	-12%	?
Cc1cccc(C)c1NC(=O)CSc1nc(N2CCOCC2)nc(N2CCOCC2)n1	2%	-4%	12%	.	.	-12%	-18%	22%
[N-]=[N+]=NC1c2ccccc2C(=O)N1Cc1ccccc1 (stereo not given)	.	?	10%	.	.	-20%	5%	.
Cc1ccccc1SCC(=O)NC1CCOC1=O (stereo not given)	-4%	4%	-5%	-2%	-1.1%	9%	1%	-19%
COc1cccc(NC(=O)Cn2c(=O)n(CCC(=O)NCc3ccccc3OC)c(=O)c3ccccc32)c1	?	.	.	4%	-1.3%	-7%	.	13%[46.1 µM]
Cc1cccc(-n2c(C)cc(/C=N/O)c2C)c1	-1%	7%	5%	11%	-1.6%	3%	22%	1%
COC(=O)C(NC=O)C(O)(Cc1ccccc1)C(F)(F)F (stereo not given)	26%	6%	-3%	2%	3.2%	81%[activator]	-20%	-20%
O=C(Nc1ccc(F)cc1)C(c1ccccc1)N1CCN(S(=O)(=O)c2ccccc2)CC1 (stereo not given)	?	?	22%	-2%	-2.2%	-25%	-1%	-6%
COCCN(CC(=O)Nc1cccc(C)c1C)C(=O)C1(c2ccccc2)CC1	4%	25%	.	.	.	3%	3%	-5%
CCCCc1ccc(S(=O)(=O)NNC(=S)NCc2ccco2)cc1	-1%	12%	1%	-27%	-18%	-10%	-10%	8%
COC(=O)c1ccc(OC(=O)C2CC(=O)N(c3cccc(C)c3)C2)cc1 (stereo not given)	4%	-10%	-36%	7%	-3.9%	0%	13%	10%
C/C(=N\N=C(/N)SC1CC(=O)N(c2ccccc2)C1=O)c1cccs1 (stereo not given)	-10%	0%	-34%	-2%	-12%	.	-5%	0%
COC(=O)C1(C)NC(c2ccco2)C2C(=O)N(c3ccc(C)cc3)C(=O)C21 (stereo not given)	-3%	-11%	7%	-10%	0.3%	21%	3%	13%
Cc1ccccc1C(=O)NNC(=O)C1CCN(C(=O)Nc2ccccc2)CC1	-16%	0%	.	.	.	-4%	2%	-29%[46.1 µM]
O=C(N/N=C/c1cc(Br)ccc1OC(=O)c1ccc(Br)cc1)c1ccncc1	5.6µM*	-3%	-1%	.	.	0%	-19%	1µM*
Cc1c(C(=O)Nc2ccccc2)cn2c(nc3ccccc32)c1C#N	7%	0%	12%	?	-3.2%	-21%	-3%	?
Cc1cc(C)nc(Nc2ccc(N3CCOCC3)cc2)n1	8%	-1%	2%	?	0.2%	20%	14%	8%

Screens as filed in PubChem BioAssay.
